# Screening results as filed in PubChem.
# ALR inh: inhibitors of human ALR sulfhydryl oxidase, primary screen, biochemical, H2O2 detection, HRP-luminol luminescence, single point; AID 485317, 2010; actives 3.8% (n = 290,000); FAD-linked sulfhydryl oxidase ALR (Homo sapiens), P55789; purified ALR, DTT oxidation; inhibition, % (no concentration beside the values);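 active = mean and each replicate at 75% or more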;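 note: stock transfer was 7.5 nL into about 7.5 µL; 0% = neutral wells and 100% = wells with inactivated enzyme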
# Target sequence (P55789 whole entry, looked up): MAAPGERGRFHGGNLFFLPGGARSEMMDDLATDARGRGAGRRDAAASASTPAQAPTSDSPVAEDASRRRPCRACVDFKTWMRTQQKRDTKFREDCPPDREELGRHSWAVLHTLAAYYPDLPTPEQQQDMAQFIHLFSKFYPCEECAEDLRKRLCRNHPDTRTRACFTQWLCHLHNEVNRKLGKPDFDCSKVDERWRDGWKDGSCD
# Ecoli growth: E. coli growth inhibition, primary screen, OD600. Escherichia coli growth, 23 h; hits give low values. actives 0.21% (n = 330,000). AID 1053175, 2014. OD600 absorbance (test concentration not listed);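 active = OD600 absorbance below the run mean of sample wells minus 3.6 SD, in any replicate, cut at about 0.56 in these data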;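 note: stock transfer was 300 nL into about 60 µL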
# FGF22 binding: binders of human FGF22 protein, primary screen, FGF22 synaptogenesis inhibitor project, biophysical, thermal shift, single point; Fibroblast growth factor 22 (Homo sapiens), Q9HCT0; recombinant FGF22 thermal shift, SYPRO orange fluorescence; percent of sucrose octasulfate shift, DMSO zero; calls only at 9.99 µM; actives 1.5% (n = 340,000);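 active = melting point raised past a set limit in the mean and every replicate; three in four hits are not shown here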
# UCH37 inh: inhibitors of human UCH37 deubiquitinase, primary screen, biochemical, Ub-AMC cleavage, fluorescence; Ubiquitin carboxyl-terminal hydrolase isozyme L5 (Homo sapiens), Q9Y5K5; purified proteasome/UCH37; inhibition, % (concentration not given with the values); actives 0.33% (n = 330,000); AID 588478, 2011;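 active = mean of two replicates above 20%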;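 note: 0% = compound-free wells with enzyme and 100% = wells lacking proteasome; stock transfer was 100 nL into about 20 µL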
# Target sequence (Q9Y5K5 whole entry, looked up): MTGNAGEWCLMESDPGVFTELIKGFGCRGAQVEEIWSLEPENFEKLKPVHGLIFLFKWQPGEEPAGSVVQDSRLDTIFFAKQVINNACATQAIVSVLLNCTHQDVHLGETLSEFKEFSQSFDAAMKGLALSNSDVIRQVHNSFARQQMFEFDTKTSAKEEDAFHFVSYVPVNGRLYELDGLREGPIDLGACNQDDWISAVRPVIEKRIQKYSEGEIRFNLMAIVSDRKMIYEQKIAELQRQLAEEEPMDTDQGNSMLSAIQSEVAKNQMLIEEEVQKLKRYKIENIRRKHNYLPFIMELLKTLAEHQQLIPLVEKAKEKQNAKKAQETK
#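 Reagent: Ub-AMC substrate; assay system: Proteasome-associated human UCH37 deubiquitinase; controls: no-proteasome and no-compound wells; read-out: % inhibition of Ub-AMC cleavage fluorescence; timing: 30 min preincubation with enzyme, 25 min cleavage at room temperature; signal: AMC fluorescence from Ub-AMC cleavage, excitation 355 nm, emission 460 nm; buffer or medium: Tris-HCl pH 7.4 plus ovalbumin, ATP-MgCl2, DTT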
# Beta2AR agonist: beta2AR agonists driving receptor internalization, primary screen, cell-based, FAP fluorogen, flow cytometry. Beta-2 adrenergic receptor (Homo sapiens), P07550. Am2.2-beta2AR cells; reference of the scale not given here. response, % (test concentration not listed). actives 0.43% (n = 340,000);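 active = response above a set limit, near 3 SD of response in nonfluorescent compounds, cut at about 42% in these data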;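 note: stock transfer was 100 nL into about 11 µL; a reference agonist was the positive control; negative values mostly stem from fluorescent compounds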
# Target sequence (P07550 whole entry, looked up): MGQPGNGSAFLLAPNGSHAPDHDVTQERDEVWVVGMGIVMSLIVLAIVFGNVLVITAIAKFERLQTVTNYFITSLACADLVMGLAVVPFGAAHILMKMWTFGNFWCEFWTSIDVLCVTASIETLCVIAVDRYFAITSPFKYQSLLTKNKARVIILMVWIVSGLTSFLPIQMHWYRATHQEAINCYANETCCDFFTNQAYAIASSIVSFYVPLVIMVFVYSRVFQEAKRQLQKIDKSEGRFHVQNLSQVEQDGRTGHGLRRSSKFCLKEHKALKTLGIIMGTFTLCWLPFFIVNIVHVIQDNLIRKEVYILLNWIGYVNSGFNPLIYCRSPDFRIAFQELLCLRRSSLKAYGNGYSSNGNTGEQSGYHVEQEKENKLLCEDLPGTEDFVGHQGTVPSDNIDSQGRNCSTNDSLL
# HNF4A DNA FP: change in binding of human HNF4A to DNA, primary screen, biochemical, fluorescence polarization, FITC-DNA; Hepatocyte nuclear factor 4-alpha (Homo sapiens), P41235; 1 h; activity change, % at 10 µM; actives 0.3% (n = 360,000); AID 1224865, 2016; in the data active = activity change above about 30%, passing the limit was not always enough;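 note: controls were the assay level and a saturating level of protein; the project sought stronger binding though the title names inhibitors; some compounds called inactive have numbers as strong as hits; positive values seem to mean higher polarization but the record does not say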
# Ecoli rRNA inh: reduced GFP signal of wild-type E. coli, primary screen, bacterial rRNA inhibitor project, GFP/RFP fluorescence, OD600, single point. actives 1.6% (n = 350,000). E. coli WT GFP vs humanized-ribosome RFP mutants, 24 h; hits give low values; DMSO median 0, no signal -100. GFP signal change (wild-type ribosome), % (test concentration not listed). AID 720706, 2013;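 active = significant combined selectivity score with lowered wild-type GFP, culture density cut under 30%, mutant RFP and density less affected; inactive = any of these conditions unmet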; note: one replicate is shown; some compounds called inactive have numbers as strong as hits
# Ecoli rRNA inh OD600: second read-out of Ecoli rRNA inh, no call of its own (marks repeat the call); OD600 change, %; measured here: OD600 growth;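 optical density of the mix in the first replicate; 0 = DMSO median and -100 = no signal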
# Ecoli rRNA inh RFP: recorded beside Ecoli rRNA inh, whose call it bears; RFP signal change, %; measured here: RFP humanized mutant strains;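 first replicate; 0 = DMSO median and -100 = no signal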
# * marks the source's active call; other numbers are inactive results; i = inactive; . = not tested or not shown. A portion of the library; the hit share may differ from the screen's.
molecule	Ecoli rRNA inh OD600	FGF22 binding	Ecoli rRNA inh	Beta2AR agonist	UCH37 inh	Ecoli growth	ALR inh	Ecoli rRNA inh RFP	HNF4A DNA FP
Cc1nnc(NC(=O)CSc2nc3c(c(=O)n(C)c(=O)n3C)n2C(C)C)s1	13	i	14	5	-0.8	0.68	-10	0.5	1.3
OCCCNc1c2ccccc2nc2ccccc12	-6	i	2	-12	-12	0.62	-8	-2.5	-16
CC[n+]1ccc(/C=C2\Sc3ccccc3N2CCCS(=O)(=O)[O-])c2ccccc21	12	i	21	-14	0.3	.	-3	4.5	5.7
O=C(NC1CCCC1)C(c1ccncc1)N(C(=O)Cn1nnc(-c2ccccc2F)n1)c1cccc(F)c1 (stereo unspecified)	10	i	2	9	2.8	0.58	11	-1.2	3.9
CN(C(=O)C1CCN(S(=O)(=O)c2cccs2)CC1)C1CCCCC1	-2	i	3	2	-0.4	0.71	-3	-2.9	0.7
COCC(=O)Nc1cc(C)cn(Cc2c(F)cccc2Cl)c1=O	7	i	1	-1	.	.	-11	-0.6	-0.1
S=c1[nH]nc(Cc2cccc3ccccc23)n1-c1ccccc1	.	.	.	7	0.1	0.73	90*	.	-0.3
COc1ccc(C2=NN(C(=O)c3ccco3)C(c3ccco3)C2)cc1OC (stereo unspecified)	-4	i	-13	3	2.1	0.66	.	6.3	5.5
O=C(NNC(=O)c1ccc(Cl)c(S(=O)(=O)Nc2ccc(Cl)cc2)c1)c1ccc(=O)[nH]c1	3	i	4	1	-1.0	0.69	4	0.5	0.2
CN1CCC(N(C)CC(=O)Nc2cccc(Oc3ccccc3)c2)CC1	.	.	.	-11	2.4	0.7	0	.	-1.3
Cc1ccc(C2CC(c3cccc(C)c3)n3ncnc3N2)cc1 (stereo unspecified)	-74	.	-56	-2	5.1	0.72	1	-17	-2.8
Cc1ccc(NC(=O)COC(=O)CCC(=O)c2ccc(C(C)(C)C)cc2)c([N+](=O)[O-])c1	.	.	.	1	-0.4	0.71	11	.	1.1
NC(=O)N1N=C2/C(=C/c3ccccc3)CCCC2C1c1ccccc1 (stereo unspecified)	-77	i	-59	1	-88	0.65	-5	-16	2.2
CC(=O)CSc1nnc(NC(=O)CCc2ccccc2)s1	.	.	.	-9	5.0	0.79	-2	.	0.3
Cc1ccc(S(=O)(=O)n2c(C)nc3cc(C)ccc32)cc1	2	i	6	2	2.3	0.68	-3	-1.2	0.3
COc1ccc(OC)c(-c2csc(NC(=O)c3ccc(OCC4CCCO4)cc3)n2)c1 (stereo unspecified)	-1	i	3	-8	2.0	0.7	-20	2.6	-0.5
COc1ccc(NCCC#N)cc1	.	.	.	6	3.3	0.72	0	.	-0.3
Cc1ccc(NC(=O)COC(=O)CCOc2ccccc2C)cc1	4	i	-6	3	2.1	0.66	-3	5.5	0.8
Cc1c(CC(=O)N2CCN(C(=O)C3COc4ccccc4O3)CC2)c(=O)oc2c(O)c(O)ccc12 (stereo unspecified)	-60	i	-41	0	.	.	63	-0.6	-37
O=C(Cc1ccccc1Cl)NCc1cccnc1	16	i	10	7	2.2	0.66	1	2.9	2.2
COc1ccc(/C=N/NC(=O)CC2N=C(Cc3ccccc3)NNC2=O)cc1OC (stereo unspecified)	13	i	7	3	.	.	1	0.9	-1.9
COc1ccc([N+](=O)[O-])c(OC)c1C(=O)NC(=O)Nc1nc(C)cc(C)n1	-3	i	5	-2	3.6	0.68	-5	-3.5	0.4
Cc1ccc([N+](=O)[O-])c2c1C(N1CC(C)OC(C)C1)C(C)(C)O2 (stereo unspecified)	-12	i	-3	1	3.9	0.69	-10	-2.6	-1.9
Cc1nn(C)c(C)c1CCC(=O)NC1CC(C)(C)Cc2c1cnn2-c1ccccc1 (stereo unspecified)	6	i	1	-7	0.2	0.72	.	2.3	4.4
Cc1cc(NC(=O)C2COc3ccccc3O2)no1 (stereo unspecified)	11	i	13	6	3.5	0.73	.	-0.2	-2.7
CS(=O)(=O)n1nc(-c2ccccc2)nc1NCc1ccco1	.	.	.	0	3.3	0.77	.	.	0.8
COc1ccccc1NC(=O)CSc1nnc(C2CCCCC2)n1-c1ccccc1	-32	i	-29	9	6.8	0.72	5	11	-1.3
CCOc1cc(/C=C2\C(=N)N3N=C(S(C)(=O)=O)SC3=NC2=O)ccc1OCCOc1cccc(OC)c1	-7	i	-5	4	-1.3	0.67	.	-7.8	2.9
O=C(COC(=O)Cc1ccc(-c2ccccc2)cc1)NCc1ccc(F)cc1	.	.	.	1	0.4	0.71	-8	.	-4.8
CCN(CC)c1ccc(S(=O)(=O)N(CC)CC)cc1NC(=O)C1CCCC1	-38	i	-28	-7	1.2	0.64	-14	-5.0	-3.2
CC(C)(O)C#Cc1ccc(C(=O)NCc2ccccc2)s1	.	.	.	1	2.1	0.72	.	.	0.8
Cc1cc(NC(=O)C(C)(C)C)no1	.	.	.	-13	1.0	0.73	-9	.	-1.0

# Another view of three compounds above.
# The line under a structure holds: Ecoli rRNA inh OD600	FGF22 binding	Ecoli rRNA inh	Beta2AR agonist	UCH37 inh	Ecoli growth	ALR inh	Ecoli rRNA inh RFP	HNF4A DNA FP
> CCN(CC)c1ccc(S(=O)(=O)N(CC)CC)cc1NC(=O)C1CCCC1
 : -38	i	-28	-7	1.2	0.64	-14	-5.0	-3.2
> CC(C)(O)C#Cc1ccc(C(=O)NCc2ccccc2)s1
 : .	.	.	1	2.1	0.72	.	.	0.8
> Cc1cc(NC(=O)C2COc3ccccc3O2)no1 (stereo unspecified)
 : 11	i	13	6	3.5	0.73	.	-0.2	-2.7

# Additional structures
molecule	Ecoli rRNA inh OD600	FGF22 binding	Ecoli rRNA inh	Beta2AR agonist	UCH37 inh	Ecoli growth	ALR inh	Ecoli rRNA inh RFP	HNF4A DNA FP
CC1=C(C(=O)OCc2ccc([N+](=O)[O-])cc2)N2C(=O)C(NC(=O)Cc3ccccc3)C2SC1 (stereo unspecified)	10	i	0	-5	2.7	0.71	17	0.4	-3.7
O=C(NCc1ccccc1)C(c1ccccc1)N(C(=O)c1csnn1)C1CC1 (stereo unspecified)	9	.	8	1	2.8	0.71	10	2.3	3.2
COC(=O)c1ccc(NC(=O)N(c2ccccc2)c2ccccc2)cc1	12	i	12	3	2.6	0.73	-2	-0.8	-4.7
CC(C)CN(C(=O)CSc1ccc2c(c1)OCCO2)c1c(N)n(CC(C)C)c(=O)[nH]c1=O	12	i	2	-2	-1.0	0.68	.	-0.5	-1.0
CCC1CCCCN1CCn1c(=S)[nH]c2cc(OC)c(OC)cc2c1=O (stereo unspecified)	.	.	.	0	1.5	0.7	64	.	-3.4
CCCn1c(C)cc(/C=C(\C#N)C(=O)OCC(=O)Nc2cccc(OC)c2)c1C	-22	i	-16	8	-97	0.71	-6	-17	0.9
Cc1ccc(NS(=O)(=O)c2csc(C(N)=O)c2)c(C)c1	-2	i	4	8	4.8	0.65	6	2.1	-2.4
O=C(O)/C=C/C(=O)Nc1ccc(N2CCOCC2)nc1N1CCOCC1	10	i	32	-2	9.4	0.71	12	47	-6.3
O=C(CCl)N1CCN(S(=O)(=O)c2ccc3c(c2)CCC3)CC1	8	i	7	7	5.4	0.69	.	-2.8	3.7
CCC(=O)c1cc2c(C)cc(=O)oc2c(C)c1OC(C)=O	.	.	.	-1	i	0.66	0	.	3.0
CC(=O)Nc1ccc(-c2cc(C(=O)O)c3ccc(C)cc3n2)cc1	.	i	.	0	-284	0.7	-11	.	4.2
CC(=O)Nc1ccc(NC(=O)c2ccc(C)c(S(=O)(=O)Nc3cccc(C)c3)c2)cc1	-21*	i	-27*	-1	0.1	0.67	19	-1.5*	-1.1
CC(C)(C)c1ccc(Cn2nc(CC(=O)O)c3ccccc3c2=O)cc1	-8	i	-16	-3	2.5	0.71	7	3.4	2.0
CC(NC(=O)C(=O)NCCC1=CCCCC1)c1ccccc1 (stereo unspecified)	.	i	.	8	1.7	0.68	-4	.	1.9
CCOc1cc(CNCc2ccccc2)ccc1OCC(=O)NC1CCCCC1	-2	i	-4	8	1.7	0.69	-13	-0.8	-2.7
Cc1cc2c(Nc3cccc(O)c3)ncnc2s1	-16	i	-17	-3	4.7	0.69	99*	6.1	2.2
O=C1CC2(CCCC2)C(=O)N1CN1CCN(S(=O)(=O)c2ccc(F)cc2F)CC1	18	i	18	0	0.9	0.71	.	2.5	4.4
CCc1ccc(C(=O)CCC(=O)Nc2ccc(OC)c(S(=O)(=O)N3CCCCC3)c2)cc1	-14	i	-11	-4	2.3	0.66	-22	2.3	-2.1
O=C(COC(=O)c1ccccc1)Nc1cccc(S(=O)(=O)NC2=NCCCCC2)c1	12	i	25	-3	0.5	0.69	-11	-0.4	-0.1
Cc1ccc(OCCn2c(=O)oc3ccc(C)cc32)cc1	3	i	2	3	2.8	0.66	10	1.7	0.6
CCCn1ncc([C@@H]2C[C@H]3CN(Cc4cccc(Cl)c4)C(=O)[C@]34CCCN24)c1C	12	i	1	3	1.1	0.66	0	3.6	9.1
NC(=O)NC(CC(=O)NCCCc1ccccc1)c1ccc(Cl)cc1 (stereo unspecified)	0	i	-9	0	1.5	0.71	0	5.2	0.8
N#C/C(=C(\O)C(F)(F)F)c1nnc2n1CCCCC2	8	.	14	4	.	.	-2	0.7	-3.8
CCCc1cc(C(=O)NCc2cccs2)no1	8	i	4	9	6.2	0.76	-5	-2.3	0.1
O=C(c1cc(-c2ccc(Cl)cc2)n(-c2ccc(Cl)cc2)n1)N1CCOCC1	.	.	.	-8	-2.3	0.69	62	.	-0.2
Cc1cc(C)nc(-n2nc(C)cc2NC(=O)c2ccc(S(=O)(=O)N3CCOCC3)cc2)n1	.	.	.	.	3.7	0.7	1	.	.
CCOC(=O)c1csc(N)n1	0	i	6	4	3.8	0.66	0	0.6	-2.5
COC(=O)c1oc(-c2ccccc2)nc1C	22	i	25	-13	2.1	0.67	-2	-1.3	-2.7
COc1ccc(OC)c(-n2c(=S)[nH]c3cc(C(=O)N4CCC(C(N)=O)CC4)ccc3c2=O)c1	.	.	.	1	6.1	0.72	8	.	0.7
NC(=O)C1CCN(C(=S)NCc2ccc3c(c2)OCO3)CC1	-1	i	18	5	2.7	0.73	.	0.4	2.4
CC(C)C1NC2(C(=O)c3ccccc3C2=O)C2C(=O)N(c3ccc(F)cc3)C(=O)C12 (stereo unspecified)	.	.	.	0	1.5	0.67	-1	.	2.2
CS(=O)(=O)c1ccc(Oc2ccc(-c3nnco3)cc2)c([N+](=O)[O-])c1	8	i	-10	-16	2.7	0.7	.	-0.8	2.8
